Vaccinia Venus: qHTS for Stage-Specific Inhibitors of Vaccinia Orthopoxvirus: Venus Reporter Primary qHTS. Vaccinia virus Venus reporter expression, fluorescence. Potency, µM (highest dose often 36.5 µM), for inactives: at the highest dose activity change, negative = inhibition, usual class: inhibitors. hit rate 0.46% among 330,000; active means well fitted inhibition curve with a large enough effect; inconclusive means small, poorly fitted or top-dose-only effect; inactive means no such curve, though single readings can be large or run the other way; tested in A549 cells; further: nearly all actives have a fitted effect of over 30% in size; inactives centre near -10
Vaccinia mCherry: qHTS for Stage-Specific Inhibitors of Vaccinia Orthopoxvirus: mCherry Reporter Primary qHTS | hit rate 0.63% among 310,000 | Vaccinia virus mCherry reporter infection, fluorescence; about a quarter of the inactives have no number | Potency, µM (titrated, usually from 36.5 µM), for the others: at the highest dose activity change, negative = inhibition, actives largely listed as inhibitors | AID 720579, 2013; active = well fitted inhibition curve with a large enough effect; inconclusive = small, poorly fitted or top-dose-only effect; inactive = no such curve, though single readings can be large or run the other way; tested in A549 cells; further: nearly all actives have a fitted effect of over 35% in size; inactives centre near -10
The depositor's hits bear a star; i = inactive; ? = inconclusive; nt = not tested or not shown; & = joins results of further samples; [ ] = dose if it differs, or a comment. On the % scale 0 is the no-effect control and ±100 the full control effect; potency means the concentration at half of the fitted maximal effect.

SMILES	Vaccinia Venus	Vaccinia mCherry
CCCSCCCNC(=O)c1ccc2nc(Cc3ccccc3)oc2c1	3%	-7%
COC(=O)c1sc(SC)c(S(=O)(=O)C(C)C)c1N/N=C(\C#N)C(=O)c1ccccc1	0%	-6%
OC(Cc1cccc(Br)c1)c1ncc(-c2cccc(C(F)(F)F)c2)[nH]1 (centres undefined)	?	?
O=C(CCn1c(=O)oc2ccccc21)NCCN1CCOCC1	-2%	i
O=C(c1ccco1)N1CCN(C(=O)c2cc3c(s2)-c2ccccc2OC3)CC1	-6%	14%
CC1CCCCC1NC(=O)CCNC(=O)N1CC(=O)Nc2ccccc21 (centres undefined)	7%	-15%
O=C(Nc1ccccc1C(=O)N/N=C/c1ccco1)c1ccccc1	-17%	-12%
COCC1CCN(Cc2cn[nH]c2-c2ccc(OC)cc2F)C1 (centres undefined)	-11%	i
O=C1c2ccc(Oc3ccc([N+](=O)[O-])cc3)cc2C(=O)N1CCO	-8%	-19%
COc1ccc(Cc2c(C3CCCCC3)nc3c(C)cc(Br)cn23)c(C)c1	-6%	i
CCc1ccc(NC(=O)C(=O)NCC(c2cccnc2)N2CCN(c3ccc(F)cc3)CC2)cc1 (centres undefined)	?	-20%
CC(C)NC(=O)C1CC=CCC1C(=O)O (centres undefined)	2%	5%
COc1ccc(-n2c(O)c(/C(C)=N/N3CCCCCC3)c(=O)[nH]c2=O)cc1	-4%	-16%
Cc1ccc(O)c(C(=O)c2cc(C#N)c(=O)n(CC3CCCO3)c2)c1 (centres undefined)	-9%	nt
O=C(c1cccc(-c2ccc(O)cc2)c1)N1CCN(c2ccc(F)cc2)CC1	1%	-10%
CC(=O)CCc1oc2ccc(C)cc2c1Cc1ccccc1	-4%	-12%
Cc1ccc(S(=O)(=O)c2nc(S(C)(=O)=O)sc2N(C)C)cc1	11µM*	-16%[1.46 µM]
CC(C)c1ccc(NC(=O)NCc2cccnc2)cc1	-6%	i
O=C(COC(=O)c1ccccc1NC(=O)c1ccco1)NC1CCCCC1	-6%	nt
COc1ccc(CNS(=O)(=O)CCNCc2ccccc2OC)cc1	-9%	-18%
COc1ccc(OCCn2nnc(-c3ccc(Cl)cc3)n2)cc1	-11%	-14%
COC(=O)c1cc(OC)c(OC)cc1NC(=O)C(C)c1ccc([N+](=O)[O-])cc1 (centres undefined)	-7%	-13%
CCCc1cc2c(=O)n(NC(=O)c3nn(C)cc3[N+](=O)[O-])c(C)nc2s1	7%	-5%
S=c1[nH]nc(-c2ccccc2)n1CC1CCCO1 (centres undefined)	-22%	nt
Cc1ccc(OC2CCN(C(=O)C3CCC(=O)N(C4CC4)C3)CC2)cc1 (centres undefined)	-15%	-4%

Next section
SMILES	Vaccinia Venus	Vaccinia mCherry
Cc1nn(Cc2ccccc2Cl)c(C)c1C(=O)OCC(=O)NC1CCS(=O)(=O)C1 (centres undefined)	-10%	-12%
COc1ccc(C=O)cc1COc1ccc(Cl)cc1[N+](=O)[O-]	-10%	-18%
Cc1ccc(CNC(=O)c2ccc3oc(=O)n(Cc4ccccc4)c3c2)cc1	0%	-4%
Cc1ccc(CNC(=O)c2cn(C)c3ccc(S(=O)(=O)N4CCOCC4)cc3c2=O)cc1	-9%&-18%	-15%&-25%
Clc1ccccc1-c1ncc2ccccn12	-3%	10%
Cc1noc(C)c1NC(=O)Nc1cccc2c1O[C@@H](CN(C)C(=O)Nc1ccc3c(c1)OCO3)[C@@H](C)CN([C@H](C)CO)C2=O	-3%	i
NC(=O)Cn1c(=O)n(CCCC(=O)NC2CCN(Cc3ccccc3)CC2)c(=O)c2ccccc21	-6%	nt
CCn1nnnc1SCC(=O)Nc1ccc(OC)cc1	-4%	-13%
CCn1c(SCc2ccccc2C)nc(=O)c2c(C(=O)OC)cc(C3CC3)nc21	-16%	-20%
CCCCn1nnnc1C1(C)CCC(=O)N1CCCn1ccnc1 (centres undefined)	?	-21%
CCN(CC)CCCNc1nc2ccccc2[nH]1	-3%	i
Cc1ccccc1-n1nnnc1SC(C)C(=O)Nc1ccc(N2CCN(C)CC2)cc1 (centres undefined)	-13%	?
COC(=O)CSc1nnc(CNC(=O)c2ccco2)n1-c1ccc(F)cc1	-3%	i
O=C(CSc1nnnn1-c1ccc2c(c1)OCCO2)c1cccc2c1OCCO2	-5%	-9%
CC(=O)c1c(C)[nH]c(C(=O)OCc2nnc(-c3ccccc3)o2)c1C	-19%	-30%
O=C(O)c1c2c(nc3ccccc13)/C(=C/c1c(F)cccc1F)CCC2	0%	36%[activator]
O=C(NC(N1CCOCC1)C(Cl)(Cl)Cl)c1ccccc1Cl (centres undefined)	-7%	i
Cc1cc(C(=O)COC(=O)[C@H](C)NC(=O)c2ccco2)c(C)n1Cc1ccco1	-4%	-5%
COc1cc(OC)cc(-c2cc3nc(C)c(CCC(=O)Nc4nc(C)cs4)c(C)n3n2)c1	-11%	13%
Cc1cc(C)cc(C(=O)NCCc2csc(-c3ccc(C(F)(F)F)cc3)n2)c1	-7%	-13%
CC1COc2ccccc2N1S(=O)(=O)c1ccc(Cl)cc1 (centres undefined)	-20%	?
CCOC(=O)c1ccc(NC(=O)c2nccnc2C(=O)O)cc1	-10%	i
Cc1nnc(SCC(=O)Nc2c(Cl)cccc2Cl)n(N)c1=O	-6%	i
CCCS(=O)(=O)NC(=O)C1(C)CCN(C(=O)c2ccccc2OC)C1 (centres undefined)	0%	46%[activator]
Fc1ccccc1-c1nc(NC2CCCC2)c2ccccc2n1	-18%	-6%

Entries of single compounds, looked up by structure.
Results for CCn1c(SCc2ccccc2C)nc(=O)c2c(C(=O)OC)cc(C3CC3)nc21 = Vaccinia Venus = -16%; Vaccinia mCherry = -20%
Results for CCN(CC)CCCNc1nc2ccccc2[nH]1 = Vaccinia Venus = -3%; Vaccinia mCherry = i
Results for COc1ccc(C=O)cc1COc1ccc(Cl)cc1[N+](=O)[O-] = Vaccinia Venus = -10%; Vaccinia mCherry = -18%

Remaining list, next part:
SMILES	Vaccinia Venus	Vaccinia mCherry
O=C(COc1ccc2ccccc2c1)Nc1nnc(-c2ccco2)s1	-9%	-20%
O=C1CCC(=O)N1CNc1ccc(Oc2ccccc2)cc1	-9%	-25%
COc1ccc(Nc2nc3c(C)cccn3c(=O)c2C=NCc2ccccc2)cc1	-15%	-3%
CCC1CCc2nc3sc(C(=O)Nc4cccc(C(F)(F)F)c4)c(N)c3cc2C1 (centres undefined)	-15%	-16%
CC(=O)c1ccc(OCc2cc([N+](=O)[O-])cc3c2OCOC3)cc1	-8%	-4%
Brc1ccc(CSc2ccc(-c3ccco3)nn2)cc1	-10%	-6%
C[C@H](c1ccccc1)N1C[C@@H](COCc2ccccc2)Oc2cc(N3CCC[C@H]3CO)ccc2S1(=O)=O	-6%	12%
COC(=O)c1cnc(Nc2nc(C(N)Cc3ccc(OC)cc3)cs2)nc1C(F)(F)F (centres undefined)	-8%	-14%
CCNC(=O)c1c(NC(=O)COc2ccc(F)cc2)sc2c1CCCC2	-3%	-4%
COc1cc(OC)cc(-c2nc3nc(C)c(CCC(=O)NCC(OC)OC)c(C)n3n2)c1	-12%	i
COCCOC(=O)c1[nH]c2c(c1C)C(=O)CC(c1ccccc1)C2 (centres undefined)	?	nt
O=C(NCCN1CCN(C(=O)c2ccc([N+](=O)[O-])cc2)CC1)C(=O)Nc1ccc(F)cc1	-11%	i
CCOc1ccc(N(CC)S(=O)(=O)N2CCCC(C(=O)NCCc3ccc(OC)cc3)C2)cc1 (centres undefined)	-10%	-10%
O=C(NCCc1nnc2n1CCN(Cc1ccc3c(c1)CCO3)CC2)c1ccco1	-9%	-8%
CCOc1ccc(NC(=O)C2CCC(CNc3c(N4CCC(C)CC4)c(=O)c3=O)CC2)cc1 (centres undefined)	-2%	43%[activator]
O=c1c2ccccc2nc(C[n+]2ccccc2)n1-c1cccc(C(F)(F)F)c1	6%	-4%
CCNC(=S)Nc1ccc2ncoc2c1	-3%	-9%
CC(=O)c1c(C)n(-c2ccccc2)c2ccc(OCC(N)=O)cc12	-14%	-23%
O=C(CC12CC3CC(CC(C3)C1)C2)Nc1cccc2ncccc12	-5%	i
Cc1cccc(NC(=O)CN2C(=O)C(c3ccc(F)cc3)=NC23CCCCCC3)c1	-7%	-18%
COc1cc2oc(=O)c(CC(=O)NCCc3ccccc3)c(C)c2cc1Cl	-2%	-5%
CCN(C(=O)C1CCCN1S(=O)(=O)c1ccc2c(c1)n(C)c(=O)c(=O)n2C)c1ccccc1 (centres undefined)	2%	-16%
O=C(Nc1cccc(Cl)c1)Nc1ccccc1NS(=O)(=O)c1cccs1	-16%	i
COc1ccc(-n2nnc3c(SCC(=O)c4ccccc4)ncnc32)cc1	-11%	nt
CCN(C(=O)CSc1nnc(Nc2ccccc2C)s1)C1CCS(=O)(=O)C1 (centres undefined)	-24%	-24%

(more compounds)
SMILES	Vaccinia Venus	Vaccinia mCherry
O=C(N/C(=C\c1ccc([N+](=O)[O-])cc1)C(=O)N1CCOCC1)c1ccccc1	-9%	-16%
CCCN1C(=O)/C(=C\C=C2/C=CN(CC)c3ccccc32)SC1=S	4%	-8%
CCCC1(C(=O)OCC)NC(c2ccc(OC)cc2OC)C2C(=O)N(c3ccccc3)C(=O)C21 (centres undefined)	-9%	nt
Cc1ccc(C(=O)Nn2cnnc2)cc1S(=O)(=O)N1CCOCC1	-15%	-1%
O=C(Nc1ccc2nc3n(c(=O)c2c1)CCCC3)c1cccc([N+](=O)[O-])c1	-26%	-10%
COc1ccc(N2C(=O)CSC2c2ccccc2)cc1 (centres undefined)	5%	i
Cc1nc2ccc(C(=O)Nc3ccc4nc[nH]c4c3)cc2[nH]1	2%	-10%
CCNC(=O)c1cc2c(c(-c3cccc(-c4cccc(C(=O)N(C)C)c4)c3)n1)[C@H](CCO)N(S(=O)C(C)(C)C)C2 (some centres undefined)	4%	15%
CCOC(=O)c1c(NC(=O)CSC(=S)N2CCOCC2)sc(C)c1C	-3%	-5%
CCCC(=O)N1CCN(c2ccc(NC(=O)c3ccc(OCC)c([N+](=O)[O-])c3)cc2)CC1	-11%	-12%
COc1ccc(C(=O)C2CCCN(Cc3cccn3-c3cccnc3)C2)cc1OC (centres undefined)	5%	-11%
COc1ccc(C=C2SC(=S)N(CCCC(=O)Nc3ccc(C(=O)O)c(O)c3)C2=O)cc1OC	8%	i
OCC1OC(n2nc3ccccc3n2)C(O)C(O)C1O (centres undefined)	5%	i
CCc1cc2ccc(C)cc2nc1SCC(=O)c1ccc(NC(C)=O)cc1	?	-20%
COc1cccc(/C=N/NC(=O)C(=O)NCc2cccnc2)c1OC	-1%	8%
COc1ccc(/C=N\NC(=O)C2=NNC(=O)C2C)cc1 (centres undefined)	-6%	-11%
N#Cc1cn(CCOC(=O)c2cccc(C(F)(F)F)c2)c(=O)[nH]c1=O	-11%	?
COc1c2c(cc3c1OCO3)CC[N+](C)=C2	-7%&2%	-13%&23%
CC(C)CC(=O)N1CCN(C(=O)c2ccco2)CC1	-1%	-6%
Cc1cc(-n2c(C)cc(C(=O)COc3ccc4ccc(=O)oc4c3)c2C)no1	2%	0%
O=C(NCC1Cc2cccc(-c3ncccn3)c2O1)C1CCOC1 (centres undefined)	-4%	-10%
COc1ccc(/C=N/OC(=O)Nc2ccccc2)cc1[N+](=O)[O-]	0%	i
O=C(Nc1ccc(-c2nc3ccccc3o2)cc1)c1ccc(N2C(=O)C3C4C=CC(C4)C3C2=O)cc1 (centres undefined)	-19%	i
O=[N+]([O-])c1ccc(NC(=S)NCCc2ccccc2)cc1	?	-24%
Cn1ncc2c(Nc3cccc(C#N)c3)ncnc21	-9%	-20%

Grouped by structure: the entries above containing two or more sulfur atoms
SMILES	Vaccinia Venus	Vaccinia mCherry
COC(=O)c1sc(SC)c(S(=O)(=O)C(C)C)c1N/N=C(\C#N)C(=O)c1ccccc1	0%	-6%
Cc1ccc(S(=O)(=O)c2nc(S(C)(=O)=O)sc2N(C)C)cc1	11µM*	-16%[1.46 µM]
O=C(Nc1cccc(Cl)c1)Nc1ccccc1NS(=O)(=O)c1cccs1	-16%	i
CCN(C(=O)CSc1nnc(Nc2ccccc2C)s1)C1CCS(=O)(=O)C1 (centres undefined)	-24%	-24%
CCCN1C(=O)/C(=C\C=C2/C=CN(CC)c3ccccc32)SC1=S	4%	-8%
CCOC(=O)c1c(NC(=O)CSC(=S)N2CCOCC2)sc(C)c1C	-3%	-5%
COc1ccc(C=C2SC(=S)N(CCCC(=O)Nc3ccc(C(=O)O)c(O)c3)C2=O)cc1OC	8%	i

Going on with the list:
SMILES	Vaccinia Venus	Vaccinia mCherry
O=c1cnn(-c2ccc(Cl)cc2Cl)c(-c2ccccc2)c1	-9%	-18%
Cc1cc2c(c(-c3nc4ccccc4s3)c1)OC(CNC(=O)CCc1cccnc1)C2 (centres undefined)	14%	-8%
CNS(=O)(=O)c1cn(CC(=O)Nc2ccc(OC)cc2OC)cc1S(=O)(=O)NC	-5%	-10%
CCC(=O)Nn1cnc2c(c1=O)C1(CCCCC1)Cc1ccccc1-2	-9%	-24%
CN(Cc1cn(C)nc1-c1ccccc1F)C1CCOC1 (centres undefined)	5%	6%
O=C1NC[C@H](Cc2ccccc2)N(CC2CCN(CCCCc3ccccc3)CC2)C1=O	-18%	-1%
Cc1ccc2cccc(OCC(=O)NCCC3=CCCCC3)c2n1	-21%	-6%
Cc1ccccc1OCC(=O)NNC(=O)C1CCCCC1C(=O)O (centres undefined)	-4%	-10%

Screening results deposited in PubChem BioAssay by National Center for Advancing Translational Sciences (NCATS).
